STK33 kinase inh: inhibitors of purified STK33 kinase, primary screen, biochemical, ADP-Glo luminescence, homogeneous, cell-free; AID 2661, 2010; inhibition, % at 10 µM; MBP phosphorylation; actives 0.073% (n = 320,000);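 active = inhibition at or above 25%, using the most active replicate where run in duplicate; inactive = inhibition below 25%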
Target sequence (Q9BYT3 whole entry, looked up): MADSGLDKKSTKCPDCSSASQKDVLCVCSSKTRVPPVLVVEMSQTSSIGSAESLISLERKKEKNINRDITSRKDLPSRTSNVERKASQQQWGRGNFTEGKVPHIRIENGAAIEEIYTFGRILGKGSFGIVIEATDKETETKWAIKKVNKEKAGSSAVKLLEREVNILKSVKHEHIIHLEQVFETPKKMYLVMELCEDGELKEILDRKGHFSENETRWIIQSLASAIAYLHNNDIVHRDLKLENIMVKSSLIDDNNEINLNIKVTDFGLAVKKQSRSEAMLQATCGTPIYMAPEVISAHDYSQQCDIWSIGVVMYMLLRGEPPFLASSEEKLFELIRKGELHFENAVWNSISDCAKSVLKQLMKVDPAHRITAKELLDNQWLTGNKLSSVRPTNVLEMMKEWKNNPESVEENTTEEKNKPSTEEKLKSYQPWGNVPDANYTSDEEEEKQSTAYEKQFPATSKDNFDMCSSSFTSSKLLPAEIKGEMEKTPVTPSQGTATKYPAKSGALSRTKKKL
OX1R FRET antag: antagonists of human orexin 1 receptor (OX1R); inhibition, % at 6.6 µM; actives 1.8% (n = 330,000); Orexin/Hypocretin receptor type 1 (Homo sapiens), O43613; OX1R-expressing cells, FRET antagonist read-out; AID 485270, 2010; in the data active = inhibition mostly above about 38%, no sharp cut-off; inactive = mostly below about 40%;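 note: 0% = agonist challenge alone and 100% = reference antagonist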
Target sequence (O43613 whole entry, looked up): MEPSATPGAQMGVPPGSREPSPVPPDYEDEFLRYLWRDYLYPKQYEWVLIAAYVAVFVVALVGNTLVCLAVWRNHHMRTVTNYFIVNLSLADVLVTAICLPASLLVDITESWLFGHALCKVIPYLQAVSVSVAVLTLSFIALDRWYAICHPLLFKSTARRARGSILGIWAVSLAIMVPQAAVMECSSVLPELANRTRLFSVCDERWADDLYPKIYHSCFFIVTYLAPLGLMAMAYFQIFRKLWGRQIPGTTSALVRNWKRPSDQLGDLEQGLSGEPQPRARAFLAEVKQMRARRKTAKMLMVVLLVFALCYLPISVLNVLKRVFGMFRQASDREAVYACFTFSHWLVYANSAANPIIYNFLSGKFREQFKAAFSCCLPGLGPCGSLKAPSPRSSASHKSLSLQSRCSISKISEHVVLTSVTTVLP
Numbers without * were called inactive; x = no result given. Not all compounds are listed; most or all hits stand in other tables.

SMILES	STK33 kinase inh	OX1R FRET antag
CCn1c2ccccc2c2nnc(SCC(=O)NCCOC)nc21	-0.2	12.9
COc1cccc(NC(=O)c2ccccc2N(Cc2ccccc2)S(C)(=O)=O)c1	-1.0	9.1
O=C(NC1CC1)C1=C[C@H](c2ccc(Br)cc2)C[C@H](OCc2ccc(CO)cc2)O1	-1.5	20.7
COc1ccc2[nH]cc(C(O)CN3CCC(C(N)=O)CC3)c2c1 (stereo not given)	0.9	31.3
COc1ccc(CC(=O)O/N=C(\N)Cc2ccc(OC)cc2)cc1	1.2	21.2
NS(=O)(=O)c1ccc(CNS(=O)(=O)c2ccc(Cl)nc2)cc1	-0.7	-2.2
CC(=O)Nc1ccc(N2CCN(c3ccc(C(F)(F)F)cn3)CC2)nc1	-1.2	22.7
CCC(=O)NC(=S)Nc1cc(C(=O)O)ccc1OC	-0.1	11.2
COc1ccccc1Nc1nc(Cl)nc(NC(C)(C)C)n1	-0.1	28.9
CCCCNC(=O)c1ccc(N2CCOCC2)c(NS(=O)(=O)c2ccc(OC)cc2)c1	1.0	10.2
Cc1cc(C(=O)NCc2csc(-c3ccccc3)n2)no1	0.1	5.7
CCOc1ncccc1C(=O)OCC(=O)N(CC(C)C)c1c(N)n(Cc2ccccc2)c(=O)[nH]c1=O	-0.7	18.2
O=C(CC1C(=O)NCCN1CC1CCCCC1)NCc1ccc(F)cc1 (stereo not given)	-1.5	4.6
c1ccc2c(OCCCCN3CCCC3)cccc2c1	-0.3	-1.0
COc1cccc(C2C3=C(CCCC3=O)Nc3nc(-c4cc(OC)c(OC)c(OC)c4)nn32)c1 (stereo not given)	-1.7	9.6
O=C(COC(=O)c1cnccn1)Nc1ccc2c(c1)OCO2	0.3	0.9
Nc1nc(-c2sc3nc4c(cc3c2N)CCCC4)nc(N2CCOCC2)n1	0.7	95.8*
O=C(c1ccccc1Nc1ccc(SC(F)F)cc1)N1CCCCC1	2.4	10.4
O=C(CC1C(=O)NCCN1Cc1cccc(F)c1)NC1CCCCC1 (stereo not given)	-0.9	-5.4
Cc1ccc(-c2nnc(SCC(=O)NC(=O)Nc3ccc(C)cc3C)n2N)cc1	-0.6	18.8
CC(C)Oc1ccc(C(=O)NC2=NCCS2)cc1	-1.7	34.6
COc1ccc(C(=O)NN(C)c2nc(-c3ccccc3)nnc2C(F)(F)F)cc1	-0.8	22.3
CCOc1ccc(NC(=O)c2ccc3c(=O)n(-c4ccc(OC)cc4OC)c(=S)[nH]c3c2)cc1	1.5	5.8
Cc1ccc(-c2nnc(SCC(=O)Nc3nccs3)n2N)cc1	-0.2	2.8
O=C(CC1(O)C(=O)N(Cc2cccc3ccccc23)c2ccccc21)c1cccnc1 (stereo not given)	-1.3	18.2

Seven compounds from above, arranged by formula weight, highest first.
SMILES	STK33 kinase inh	OX1R FRET antag
CCOc1ncccc1C(=O)OCC(=O)N(CC(C)C)c1c(N)n(Cc2ccccc2)c(=O)[nH]c1=O	-0.7	18.2
CC(=O)Nc1ccc(N2CCN(c3ccc(C(F)(F)F)cn3)CC2)nc1	-1.2	22.7
O=C(CC1C(=O)NCCN1CC1CCCCC1)NCc1ccc(F)cc1 (stereo not given)	-1.5	4.6
CCn1c2ccccc2c2nnc(SCC(=O)NCCOC)nc21	-0.2	12.9
COc1ccccc1Nc1nc(Cl)nc(NC(C)(C)C)n1	-0.1	28.9
c1ccc2c(OCCCCN3CCCC3)cccc2c1	-0.3	-1.0
CC(C)Oc1ccc(C(=O)NC2=NCCS2)cc1	-1.7	34.6

Later entries.
SMILES	STK33 kinase inh	OX1R FRET antag
O=C(CCCCCN1C(=O)c2cccc3cccc(c23)C1=O)NC1CCS(=O)(=O)C1 (stereo not given)	1.0	60.5
Cn1c(=O)c2c(SCC(=O)N3CCCC3)nc(CC(C)(C)C)nc2n(C)c1=O	-0.1	10.5
CC1CC(C)CN(C(=O)CSc2nnc(-c3ccco3)o2)C1 (stereo not given)	-1.0	25.3
Fc1cccc(C2CCCCN2Cc2nc(C3CC3)no2)c1 (stereo not given)	-0.2	14.5
O=C(Nc1ccccc1O)c1ccc(NC(=O)C2CC2)cc1	-1.1	9.2
O=C(COc1ccc(Br)cc1Cl)NC(=O)Nc1ccc2c(c1)OCCO2	-0.7	8.7
COc1cc(C(=O)Nc2nnc(C3CC3)s2)ccc1OCc1c(C)noc1C	-0.8	10.0
COc1ccc(NC(=O)COC(=O)C2CC(=O)N(Cc3ccc(C)cc3)C2)cc1 (stereo not given)	-1.4	20.9
c1cncc(-c2nc(NCC3CCCO3)c3ccccc3n2)c1 (stereo not given)	2.5	30.5
COc1ccc(Cl)cc1C(=O)Nc1ccc2c(c1)OCO2	-1.3	19.0
Cc1ccc(NC(=O)CN2CCc3cc4c(cc3C2C)OCCCO4)cc1C (stereo not given)	-1.7	5.4
CCOC(=O)C(C)c1nn(C)c(=O)c2ccccc12 (stereo not given)	-0.9	21.3
CN(CC(=O)Nc1cccc(F)c1)C(=O)CCc1nc2sc3c(c2c(=O)[nH]1)CCCC3	-0.9	21.6
O=C(Nc1ccccc1)N(CCCN1CCOCC1)Cc1ccccc1F	0.6	13.3
COc1ccc(C(C(=O)NCC2CCCO2)N(C(=O)CNC(=O)c2cccs2)c2ccccc2C)cc1OC (stereo not given)	2.8	10.2
COc1cc(CNC(C)C)ccc1OCC(=O)Nc1cccc2ccccc12	1.5	8.2
c1cc(CNc2ccc3c(c2)OCCO3)ccn1	-0.1	24.2
CC(=O)Nc1ccc(NC(=O)CSc2nccn2Cc2ccco2)cc1	0.1	15.6
CCO/C=C/C(=O)N(C)CCC#N	-1.0	25.4
COc1ccc(CC(=O)NNc2ncnc3c2cnn3-c2ccc(C)cc2)cc1OC	0.9	12.6
COc1ccc2c(C)nc(Nc3nc(C)c(C)c(=O)[nH]3)nc2c1	0.5	26.5
CC1(C)CC(O)C(C(O)c2cccc([N+](=O)[O-])c2)C(C)(C)N1 (stereo not given)	-0.6	13.4
CCCn1c(SCC(=O)Nc2cccc(NC(C)=O)c2)nnc1C(C)C	-0.3	18.1
N#CC1=C(N)OC2=C(C(=O)CCC2)C1c1ccncc1 (stereo not given)	-1.7	14.0
CC(C)CC(=O)NNC(=S)Nc1ccc(S(N)(=O)=O)cc1	-0.9	-0.5
Next section:
SMILES	STK33 kinase inh	OX1R FRET antag
COc1ccc(C(=O)NC2=NCCS2)cc1	-0.2	-11.1
O=C(COC(=O)c1cc(Br)ccc1Cl)NC1CCCC1	-1.0	13.0
O=C(c1ccccc1F)N1CCN(c2ccccc2)CC1	-0.5	17.0
O=S(=O)(c1ccc(-c2nnc(SCc3ccccc3)o2)cc1)N1CCCC1	-1.0	13.3
Cc1cc(=O)[nH]c2cc(O)ccc12	-2.4	13.2
COc1ccc(NC(=O)c2ccc(COCC(F)(F)F)cc2)cc1OC	-0.4	2.7
CC(=O)Nc1ccc(Nc2ccccc2)cc1	-0.6	3.8
CCOc1ccc2oc(C(=O)NC3CC(C)(C)NC(C)(C)C3)c(C)c2c1	-1.4	3.6
Cc1cc(N2C(=O)CC(N3CCN(c4ccc(C(=O)c5cccs5)cc4)CC3)C2=O)no1 (stereo not given)	-3.4	28.0
COc1ccc(OC)c(NC(=O)Cc2csc(NC(=O)Nc3ccccc3OC)n2)c1	2.7	18.8
CN(C)/C=C/C(=O)c1ccc(S(=O)c2ccccc2)cc1 (stereo not given)	-0.6	22.1
O=C(N/C=N/OCc1cccc(C(F)(F)F)c1)N1OC[C@@H]2COc3ccc4ccccc4c3[C@@H]21	0.9	13.9
CC1=NNC(=O)C1Oc1ccccc1 (stereo not given)	-3.9	0.8
O=C(NCCc1c[nH]c2ccccc12)c1cc(Cl)c2c(c1)OCO2	-0.3	2.9
CCCc1cc(=O)[nH]c(SCC(=O)NC2CCCCC2)n1	-0.9	25.7
COc1cc(NC(=O)Cn2c(-c3cncs3)nc3ccccc32)cc(OC)c1OC	-0.2	3.2
OC1CC(c2ccco2)NC2(CCCCC2)C1 (stereo not given)	0.8	-4.1
c1ccc(Nc2ncnc3sc4c(c23)CCC4)cc1	-0.5	7.3
Nc1c(C(=O)NCc2ccco2)nnn1CC(=O)Nc1ccc2c(c1)OCO2	0.8	10.4
COc1ccccc1NS(=O)(=O)c1ccc(C)c(C(N)=O)c1	-1.5	11.8
COc1ccc(CSc2nc(CSC)cc(N3CCOCC3)n2)cc1	-0.3	17.7
Cc1cccc(C(=O)N2CCC(c3nc(-c4ccc(S(=O)(=O)N5CCOCC5)cc4)no3)CC2)c1	-0.9	0.1
O=S(=O)(c1ccccc1)n1ccc2ccccc21	-12.6	21.5
O=c1[nH]cnc2sc(-c3ccccc3)cc12	1.0	14.0
Cc1ccc(NC(=O)CCC(=O)c2ccc(Br)cc2)cc1	0.1	1.4

In another format: entries from further up.
The line under a structure holds: STK33 kinase inh | OX1R FRET antag
COc1ccccc1NS(=O)(=O)c1ccc(C)c(C(N)=O)c1
 : -1.5 | 11.8
COc1ccc(CSc2nc(CSC)cc(N3CCOCC3)n2)cc1
 : -0.3 | 17.7
Cc1cccc(C(=O)N2CCC(c3nc(-c4ccc(S(=O)(=O)N5CCOCC5)cc4)no3)CC2)c1
 : -0.9 | 0.1

The list goes on.
SMILES	STK33 kinase inh	OX1R FRET antag
Cc1cc(C)n2nc(SCC#N)nc2n1	0.2	6.3
CCCCNC(=O)O[C@H]1C[C@@H]2CCN3C(=O)CCC[C@H]([C@H]1CC)[C@H]23	0.5	2.6
Cn1c2ccccc2c2nnc(SCC(=O)NCc3ccoc3)nc21	-1.9	10.9
O=C(CSC1=NCCN1)Nc1cccc([N+](=O)[O-])c1	1.2	26.7
Cc1cccc(Cn2c(=O)c3c(nc4n3CCN4Cc3ccco3)n(C)c2=O)c1	-0.2	-0.7
COCCn1c(SCC(=O)NC2CCCC2)nc2cccnc21	0.0	-0.9
Cc1cc2c(cc1S(=O)(=O)CCC(=O)NC1CCCCC1C)OCC(=O)N2 (stereo not given)	2.7	10.0
CN1CCCC2(CCCN(Cc3nc(Cc4cccc(C(F)(F)F)c4)no3)C2)C1 (stereo not given)	-0.2	2.8
Cc1cc(C(=O)Nc2ccc(C)c(S(=O)(=O)N3CCOCC3)c2)c(C)o1	0.6	24.1
COc1ccc(NC(=O)c2cccc3c(Br)cccc23)cc1	x	11.0
COc1ccc(NC(=S)NC(NC(=O)C(C)C)C(Cl)(Cl)Cl)c([N+](=O)[O-])c1 (stereo not given)	-2.2	53.6
CCN(CC)CCC(=O)Nc1ccc2c(c1)N(C(=O)CN(CC)CC)c1ccccc1CC2	x	27.5
CC(C)CC(=O)Nc1ccc(S(=O)(=O)NCc2ccco2)cc1	-2.0	7.6
O=C(CCCn1cc([N+](=O)[O-])cn1)NCc1ccccc1	-0.7	13.3
COCCNC(=O)c1c(N)n(-c2ccccc2)c2nc3ccccc3nc12	-0.2	8.2
COc1ccc(CCNCC(=O)Nc2c(C)cc(C)cc2C)cc1OC	-0.6	13.5
Cc1cc(C(=O)O)cc(S(=O)(=O)NNC(=O)c2cccs2)c1C	-1.8	3.6
COc1ccccc1Nc1nc(N)nc(CN2CCOCC2)n1	-1.0	8.0
CC(NC(N)=O)C(=O)NCC(=O)OCc1ccccc1 (stereo not given)	-1.7	12.6
Cn1c(SCCC(=O)O)nnc1-c1ccncc1	0.5	-3.4
CN(C(=O)c1ccncc1)C1CC(C)(C)N(O)C(C)(C)C1	-0.3	4.9
CSCC[C@H](NC(=O)COc1ccc(Cl)cc1Cl)c1nc2ccccc2[nH]1	-0.7	12.7
COc1ccc(CC(=O)NNC(=O)c2ccccn2)cc1	-0.2	17.4
CC(C)OC(=O)c1cc2c(ccn2C)n1CC(=O)N(Cc1ccccc1)c1ccccc1	-0.3	5.3
CC1CCN(CCc2nc3cc(NC(=O)COc4ccc([N+](=O)[O-])cc4)ccc3n2C)CC1	-0.4	25.5
Next section:
SMILES	STK33 kinase inh	OX1R FRET antag
CCC(C)(C)NC(=O)CN(C(=O)C(=O)Nc1ccc2c(c1)OCCO2)C1CC1	-0.1	21.0
Nc1nc(SC2c3cccc4cccc(c34)C2NS(=O)(=O)c2ccccc2)n[nH]1 (stereo not given)	0.7	18.2
CCOc1ccc(C(=O)NCCC(=O)N2CCC3(CC2)NCCc2[nH]cnc23)cc1OCC	0.8	5.2
Cc1cc(C)cc(OCC(=O)N/N=C/c2ccccn2)c1	1.2	1.0
COc1ccc(Nc2c(-c3ccc(C)cc3)nc3cnccn23)cc1	-1.7	13.5
COc1ccc(OC)c(C(=O)CSc2nc3ncccc3[nH]2)c1	0.4	17.4
O=C(O)c1ccc(NC(=O)C2C3CCC(O3)C2C(=O)O)cc1 (stereo not given)	-0.7	2.8
O=C(NNC(=S)NC1CCCCC1)c1ccccc1O	1.0	37.7
CC(C)c1ccc(OCc2ccc(C(=O)N(C)C)o2)cc1	-0.8	4.0
CN(CC(O)Cn1cnc2c1c(=O)n(C)c(=O)n2C)c1ccccc1 (stereo not given)	0.2	18.8
CCNc1nc(NOC)nc(OCC#N)n1	-0.9	9.5
O=C(O)CN1C(=O)c2cccc(Oc3ccc(Cl)cc3)c2C1=O	-1.2	26.1
COc1ccc(N=Nc2ccc(CO)cc2)cc1	0.5	11.9
OC1C=CSc2nc3ccccc3n21 (stereo not given)	0.6	13.2
N#Cc1c(SCC(=O)OCc2ccccc2)nsc1SCC(=O)OCc1ccccc1	-1.0	1.0
CC(C)Cc1cc(CNC(=O)C2CCC(=O)N(CCc3cccc(F)c3)C2)on1 (stereo not given)	-0.1	0.3
Cc1cc(C)cc(C(=O)N[C@@H](C)C(=O)N2CCC3(CC2)NCCc2[nH]cnc23)c1	-0.1	-5.2
Cc1ccc(S(=O)(=O)N[C@H](C(=O)N2CCC3(O)CCCCC3C2)c2ccccc2)cc1 (stereo not given in full)	0.4	-0.8
Cc1cccc(N(CC(N)=O)C2SC(=O)N(c3ccccc3)C2=O)c1 (stereo not given)	-2.8	4.9

Bioassay records deposited in PubChem by several laboratories.
